# Bioassay records as filed in PubChem BioAssay.
# rRNA inh HTS: inhibits bacterial ribosomal RNA function over humanized ribosomes; E. coli WT GFP vs humanized-ribosome RFP mutants, fluorescence, 24 h; stronger effect = lower value; DMSO median 0, no signal -100; GFP signal change (wild-type ribosome), % (test concentration not listed); 1.6% of 350,000 active; AID 720706;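 active = significant combined selectivity score with lowered wild-type GFP, culture density cut under 30%, mutant RFP and density less affected; inactive = any of these conditions unmet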; also: one replicate is shown; some compounds called inactive have numbers as strong as hits
# ALR inh: human ALR oxidase inhibition via reduced H2O2 | inhibition, % (test concentration not listed) | 3.8% of 290,000 active | P55789 | purified ALR, DTT oxidation, H2O2 HRP-luminol luminescence;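 active = mean and each replicate at 75% or more; inconclusive = only one of the two met; inactive = neither met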;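 also: stock transfer was 7.5 nL into about 7.5 µL; 0% = neutral wells and 100% = wells with inactivated enzyme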
# Target sequence (P55789 whole entry, looked up): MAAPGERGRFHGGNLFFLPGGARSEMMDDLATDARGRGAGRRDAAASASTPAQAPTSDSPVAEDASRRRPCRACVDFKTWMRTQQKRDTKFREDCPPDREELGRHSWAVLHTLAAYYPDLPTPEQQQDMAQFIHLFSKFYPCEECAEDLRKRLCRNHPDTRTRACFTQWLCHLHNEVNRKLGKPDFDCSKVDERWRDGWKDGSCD
# Beta apoptosis: beta cell apoptosis inhibition; 0.8% of 300,000 active; AID 435005; INS-1E cytokine-induced death, ATP luminescence, 48 h; percent of positive-control rescue, neutral wells zero; protection from apoptosis, % (no concentration beside the values);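 active = all replicates at 75% or more, or half of them and the mean; inconclusive = half reach 75% but not the mean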;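 also: 0% = cytokine-treated negative control wells and 100% = positive control rescue; higher means more ATP so stronger rescue from cytokine killing; wells of about 40 µL received 100 nL stock; the first replicate is given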
# T cruzi repl: T. cruzi replication inhibition; T. cruzi beta-gal in NIH3T3, luminescence, 90 h; inhibition, % (no concentration beside the values); 1.4% of 300,000 active; AID 1885;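 active = mean inhibition across valid replicates above about 55%, limit read from the data; inconclusive = mean below that limit but half or more replicates reach it; inactive = mean below it, under half of replicates reach it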;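 also: signal also drops with host cell toxicity which is not excluded here; 0% = plate median of DMSO wells and 100% = zero luminescence signal; higher percent means less beta-gal luminescence so fewer parasites; stock transfer was 50 nL into about 50 µL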
# FGF22 binding: shifts melting point of recombinant human FGF22. Q9HCT0. recombinant FGF22 thermal shift, SYPRO orange fluorescence; percent of sucrose octasulfate shift, DMSO zero. calls only at 9.99 µM. 1.5% of 340,000 active;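 active = melting point raised past a set limit in the mean and every replicate; inconclusive = no clear call; three in four hits are not shown here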
# Target sequence (Q9HCT0 whole entry, looked up): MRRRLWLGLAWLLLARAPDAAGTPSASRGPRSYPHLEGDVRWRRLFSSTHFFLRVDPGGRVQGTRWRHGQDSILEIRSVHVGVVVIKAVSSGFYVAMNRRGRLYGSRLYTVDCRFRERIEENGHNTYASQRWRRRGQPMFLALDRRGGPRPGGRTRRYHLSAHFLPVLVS
# Calb FLC: affects C. albicans growth with fluconazole | C. albicans CaCi-2 (fluconazole-resistant clinical isolate) + fluconazole, Alamar Blue growth, 48 h | growth inhibition, % (test concentration not listed) | 0.57% of 300,000 active;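 active = most replicates above 75%; inconclusive = exactly half above 75%; inactive = most below 75%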;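 also: all wells also contain fluconazole at 8 µg/ml as a sub-toxic cotreatment; 0% = median of DMSO wells and 100% = median of geldanamycin control wells; wells of about 8 µL received 7.5 nL stock; the first replicate is given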
# RanGTP-Imp inh: disruptors of Ran-importin-beta complex formation – biochemical, FRET, CFP-Ran, YFP-importin-beta, homogeneous, primary screen; cell-free CFP-Ran/YFP-importin-beta FRET ratio; inhibition, % (test concentration not listed); 1.1% of 300,000 active;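 active = most replicates above 15%; inconclusive = exactly half above 15%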;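 also: 0% = DMSO wells and 100% = Ran loaded with GDP instead of GTP; wells of about 40 µL received 100 nL stock; the first replicate is given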
# MLL AF4-AF9 inh: MLL-AF4/AF9 protein interaction inhibition; inhibition, % at 10 µM; P42568; AlphaScreen, biotin-AF4 peptide binding to FLAG-AF9; AID 651704; 0.47% of 350,000 active;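 active = every replicate reaching a set inhibition limit, whatever the replicate mean, cut at about 25% in these data; inconclusive = mean inhibition reaches that limit but some replicates miss it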;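 also: 0% = plate neutral control median and 100% = total signal loss; the record names both 10 and 1 µM as test concentration; the first replicate is given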
# Target sequence (P42568 whole entry, looked up): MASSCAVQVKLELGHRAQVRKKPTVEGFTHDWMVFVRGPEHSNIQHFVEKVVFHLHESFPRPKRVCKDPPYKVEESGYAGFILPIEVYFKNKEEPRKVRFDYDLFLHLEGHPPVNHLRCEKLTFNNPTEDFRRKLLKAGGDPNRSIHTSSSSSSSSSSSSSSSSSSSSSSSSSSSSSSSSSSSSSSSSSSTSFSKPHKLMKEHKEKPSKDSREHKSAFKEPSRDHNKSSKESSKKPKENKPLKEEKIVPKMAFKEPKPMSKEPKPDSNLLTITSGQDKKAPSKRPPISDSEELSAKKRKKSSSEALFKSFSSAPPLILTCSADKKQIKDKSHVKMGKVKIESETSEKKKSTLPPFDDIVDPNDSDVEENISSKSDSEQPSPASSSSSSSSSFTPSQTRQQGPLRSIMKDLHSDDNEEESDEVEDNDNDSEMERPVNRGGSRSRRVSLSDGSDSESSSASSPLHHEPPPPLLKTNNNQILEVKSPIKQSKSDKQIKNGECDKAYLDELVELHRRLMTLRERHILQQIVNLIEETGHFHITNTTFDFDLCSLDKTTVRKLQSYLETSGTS
# rRNA inh HTS OD600: further read-out of rRNA inh HTS, marked with its call; OD600 change, %; measured here: OD600 growth;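 optical density of the mix in the first replicate; 0 = DMSO median and -100 = no signal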
# rRNA inh HTS RFP: recorded beside rRNA inh HTS, whose call it bears; RFP signal change, %; measured here: RFP humanized mutant strains;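 first replicate; 0 = DMSO median and -100 = no signal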
# Starred values were filed as active, the others as inactive; i = inactive; ? = inconclusive; nt = no result given. Only part of the results is shown (hit frequency here may not be typical).
SMILES,rRNA inh HTS,rRNA inh HTS OD600,rRNA inh HTS RFP,ALR inh,Beta apoptosis,T cruzi repl,FGF22 binding,Calb FLC,RanGTP-Imp inh,MLL AF4-AF9 inh
O=C(Nc1ccccc1)c1c(F)c(F)c(F)c(F)c1F,-8,-9,-1.6,-6,3,6,i,18,-1.4,-43
COc1ccc(-c2nnc(SC(C)C#N)o2)cc1 (stereo not drawn),nt,nt,nt,nt,-2,14,nt,4,0.3,nt
CC1CN(CCOc2ccc(Cl)c(Cl)c2)CC(C)O1 (stereo not drawn),-7,-10,-0.1,nt,-3,28,i,14,2.8,-6.4
COc1ccc(OC(C)C(=O)Nc2ccccc2C(F)(F)F)cc1 (stereo not drawn),-2,-3,2.0,4,-2,6,i,0,3.7,-3.8
CCCc1nc(SCc2cccnc2)c2c(=O)n(C)c(=O)n(C)c2n1,-12,-18,-5.3,16,13,11,i,10,-3.2,-12
Cc1oc2c(c1C(=O)N1CCC(C)CC1)C(=O)c1ccccc1C2=O,-20,-24,-3.4,-137,110*,37,i,-5,-0.4,6.3
COC(=O)Cc1c(O)ccn(CCc2ccc(S(N)(=O)=O)cc2)c1=O,14,24,0.0,-5,-6,-4,i,9,0.6,-0.2
CC(C)(Oc1ccc(Cl)cc1)C(=O)Nc1ccncc1,nt,nt,nt,-11,-6,-28,nt,11,?,nt
COc1ccc2nc(NC(=O)CSc3nnnn3C3CCCCC3)sc2c1,-31,-19,23,-1,-3,14,i,7,6.0,4.6
COCCNc1nc(N2CCCCC2)c2cnn(C)c2n1,-1,-7,-0.1,-2,-4,-8,i,-15,-1.9,0.0
COc1cccc(Nc2ccccc2C(=O)O)c1,-10,-3,11,99*,-2,-8,nt,?,1.5,1.0
CC(=O)Nc1ccc(S(=O)(=O)NCCS(=O)(=O)N2CCN(c3ccccc3F)CC2)cc1,-3,7,5.7,-7,nt,-15,i,2,1.7,2.3
O=C1CC2(CCN(C(=O)COc3ccccc3F)CC2)Oc2ccccc21,-3,-6,-1.5,-5,nt,2,i,5,-2.0,-2.8
N#Cc1c(-c2ccccc2)cc(-c2ccccc2)nc1Br,22,17,-5.6,-5,nt,8,i,-9,2.3,8.4
CCOc1ncccc1C(=O)NCc1ccc(OC)c(OC)c1,nt,nt,nt,-3,-5,-15,nt,11,-1.0,nt
CCOc1ccc(CC(=NCCO)C2=C(O)CC(C)(C)CC2=O)cc1OCC,3,10,4.5,-7,-7,-13,i,23,5.3,0.8
CCC(C)(C)C1CCc2[nH]nc(C(=O)NCCNC(=O)OC(C)(C)C)c2C1 (stereo not drawn),-2,-2,-0.2,-10,1,nt,i,nt,nt,-1.2
CN(/N=C/c1cccc(Br)c1)C1=NS(=O)(=O)c2ccccc21,6,9,-1.0,-11,1,6,i,5,-0.5,-1.6
CCOc1ccc2nc(NCCNC(=O)Nc3ccccc3)c(C#N)cc2c1,nt,nt,nt,11,20,0,nt,13,86*,nt
CCS(=O)(=O)N1Cc2ccccc2CC1C(=O)Nc1nc2ccccc2s1 (stereo not drawn),nt,nt,nt,-29,-1,8,nt,-14,4.4,nt
CCOc1cccc2sc(NC(=O)CCS(=O)(=O)c3ccccc3)nc12,-1,-23,3.4,-8,-15,-14,i,62,-2.9,-1.3
CC(C)(C)c1cc(/C=C2\NC(=O)NC2=O)cc(C(C)(C)C)c1O,-26,-16,-17,24,9,11,i,3,-1.8,6.7
Cc1cc(NC(=O)CSc2ncnc3sccc23)no1,17,10,2.0,-20,-9,-1,i,-2,-4.1,-0.2
Oc1ccc(Br)cc1/C=N/Nc1ccccn1,1,18,3.0,nt,133*,47,i,106*,0.1,8.5
COc1ccccc1CN(C)CC(=O)Nc1cccc(S(=O)(=O)N2CCCC2)c1,-11,-9,-0.8,-23,1,nt,nt,nt,nt,-6.1
COc1cc(OC)cc(C(=O)NNC(=O)Cc2ccc(OC)c(S(=O)(=O)N3CCOCC3)c2)c1,nt,nt,nt,nt,5,-16,nt,110*,?,nt
Cc1ccc(CCN2C(=O)CCC2(C)C(=O)NC2CCCC2)cc1 (stereo not drawn),4,6,0.2,2,-2,nt,i,nt,nt,-7.8
Cc1c(Cl)cccc1NC(=O)CCCCCN1C(=O)CCC1=O,nt,nt,nt,-4,nt,4,nt,8,?,nt
Fc1ccc(Nc2nc3ccccc3s2)cc1,5,1,-2.4,-1,-4,-10,nt,3,2.9,-0.6
CCN(CC)c1ccc(NS(=O)(=O)c2ccc3c(c2)oc(=O)n3C)c(C)c1,-12,-47,-13,99*,7,-2,i,-6,2.7,?
Cc1cc(CN(C)C(=O)c2ccc3nc(Cc4ccccc4F)oc3c2)n[nH]1,4,5,-1.5,1,0,-7,i,-7,-2.0,1.0
N#Cc1c(-c2ccc(Cl)cc2)ccn2nc(C3CCCCC3)nc12,nt,nt,nt,4,2,4,nt,-10,-1.2,nt
Cc1ccccc1C(=O)NC1CCN(CC(=O)Nc2nccs2)CC1,18,15,0.8,-1,2,-5,nt,-1,2.8,nt
CSCC[C@H](NC(=O)OC(C)(C)C)C(=O)N/N=C/c1cccc2cccnc12,3,-2,-1.2,-7,1,nt,i,-12,4.2,nt
CCCc1cc(=O)oc2cc(OCc3cc(OC)c(OC)c(OC)c3)c(Cl)cc12,nt,nt,nt,0,-1,5,nt,4,0.4,nt
CC(NC(=O)c1cnc2ccccc2n1)c1ccccc1 (stereo not drawn),-2,7,-0.6,-8,nt,1,i,2,-2.0,-6.2
C/C=C/c1ccc(OCC(=O)Nc2cc(Cl)ccc2-n2cncn2)c(OC)c1,2,2,-1.4,2,nt,0,i,14,-2.6,4.1
Oc1ccc(Br)cc1CNc1cnc2ccccc2c1,-54,-78,-18,55,-3,1,i,-8,4.0,2.9
CN(CCOc1ccccc1)S(=O)(=O)c1ccccc1C#N,-22*,-11*,-0.9*,1,2,nt,i,nt,nt,-1.4
Clc1ccc(-c2cc(COc3ccc4ccccc4c3)no2)cc1,nt,nt,nt,-5,-3,-31,nt,-8,5.9,nt

# Entries of single compounds from above. Order of screens: rRNA inh HTS, rRNA inh HTS OD600, rRNA inh HTS RFP, ALR inh, Beta apoptosis, T cruzi repl, FGF22 binding, Calb FLC, RanGTP-Imp inh, MLL AF4-AF9 inh
# COc1ccccc1CN(C)CC(=O)Nc1cccc(S(=O)(=O)N2CCCC2)c1 across the screens: -11, -9, -0.8, -23, 1, nt, nt, nt, nt, -6.1
# COc1ccc(OC(C)C(=O)Nc2ccccc2C(F)(F)F)cc1 (stereo not drawn) across the screens: -2, -3, 2.0, 4, -2, 6, i, 0, 3.7, -3.8

# Following part.
SMILES,rRNA inh HTS,rRNA inh HTS OD600,rRNA inh HTS RFP,ALR inh,Beta apoptosis,T cruzi repl,FGF22 binding,Calb FLC,RanGTP-Imp inh,MLL AF4-AF9 inh
CCCCOCCCNC(=O)Cc1ccccc1OC,nt,nt,nt,-4,2,-1,nt,2,3.5,nt
O=C(c1ccc(N2CCCS2(=O)=O)cc1)N1CCN(c2ccccc2)CC1,0,3,-0.3,46,-9,0,i,0,?,6.2
COc1ccc(S(=O)(=O)Nc2nc3ccccc3nc2Nc2cccc(C(=O)O)c2)cc1,5,-17,-1.4,98*,-5,-10,i,2,0.4,-1.3
CNC(=S)N/N=C/c1c(C)cccc1Cl,2,2,-3.5,-4,-6,-8,i,12,1.4,0.8
COc1cc(CC(=O)NCC2CCCCC2)cc(OC)c1OC,5,5,-0.9,8,-2,2,i,nt,5.3,0.2
CCn1c(CCNC(=O)c2ccc(OC)cc2)nnc1SCC(=O)Nc1ccccc1F,1,4,1.3,-12,-10,2,i,-10,-1.1,-0.8
CC1CCCCC1NC(=O)NC(=O)COC(=O)c1nccnc1N (stereo not drawn),2,-5,1.8,-2,2,nt,i,nt,nt,-3.1
O=C(N/C(=C\c1cccnc1)c1nc2ccccc2[nH]1)c1cccc(Br)c1,-37,-34,-8.6,-5,2,3,i,2,0.5,7.2
COc1ccc(S(=O)(=O)CCC(=O)NCCc2cccc(C)c2)cc1,-8,-7,-9.5,-5,-8,-7,i,-1,1.9,6.2
COc1ccc(Cl)cc1NC(=O)CN(C)C(=O)c1sc2ccccc2c1Cl,-1,-13,-4.4,-1,1,nt,i,nt,nt,-7.2
CCC(C)(C(=O)NC1CCCC1)N(C)C(=O)c1ccccn1 (stereo not drawn),5,14,-0.9,-12,-6,-28,i,-10,-2.3,2.7
COc1ccc(N(CC(=O)NC2CC3CCC2C3)S(=O)(=O)c2ccccc2)cc1OC (stereo not drawn),-3,-3,0.3,-4,-2,9,i,1,3.8,-1.2
COc1cc(Cl)ccc1OCc1cc(C(=O)N(C)CCc2c(C)n[nH]c2C)no1,-24*,-18*,4.5*,-14,-6,9,i,0,?,-0.6
CCOC(=O)C1(C)Oc2ccc(S(=O)(=O)CC)cc2NC1=O (stereo not drawn),-12,-3,-5.9,-20,-9,-14,i,15,-1.0,0.8
CNC(=O)CSc1nnc(-c2ccccc2)n1C,14,15,-0.1,-1,0,-10,i,-11,-0.9,-2.2
Cc1ccc(NC(=S)NCc2cccn2C)cc1,nt,nt,nt,5,-2,0,nt,2,-0.2,nt
CCN1CCN(c2ccc(NC(=O)c3cc4ccccc4cc3OC)cc2C)CC1,-41,-33,-2.4,-7,11,nt,i,nt,nt,19
Cc1cc(C)n2nc(C(=O)NNC(=O)c3ccc(Cl)cc3)nc2n1,7,-1,4.5,0,0,1,i,-3,1.1,3.0
CC(C)CC(=O)Nc1ccc(Oc2ccc(NC(=O)CC(C)C)cc2)cc1,nt,nt,nt,-2,-6,0,nt,5,-1.0,nt
O=C(NNc1ccccc1F)c1ccccc1,22,13,4.6,nt,-2,36,i,-30,-0.4,1.3
Cc1ccnc(NC(=O)c2ccc(Cl)s2)c1,nt,nt,nt,12,-17,1,nt,-1,-2.9,nt
O=C(N/N=C/c1ccc(Cl)cc1)Nc1ccccc1,nt,nt,nt,nt,3,19,nt,-6,-1.1,nt
O=C(/C=C/c1cccs1)Nc1ccc(N2CCOCC2)c(S(=O)(=O)Nc2cc(Cl)ccc2Cl)c1,nt,nt,nt,-5,17,17,nt,0,-2.0,nt
COc1ccc(C(=O)N/N=C/c2sc(N3CCOCC3)nc2-c2ccccc2)cc1OC,-5,-8,0.9,8,18,9,i,-11,0.5,27*
COC(=O)C1=C(C)N(C)C(C)=C(C(=O)OC)C1c1ccc(Cl)cc1,nt,nt,nt,-8,2,-4,nt,-1,1.3,nt
COc1ccccc1N1CCN(C(=O)c2ccc(Br)s2)CC1,nt,nt,nt,24,6,8,nt,26,1.6,nt
Cc1cccc(CN2CCN(CC(=O)NCCCN3CCN(c4ccc(F)cc4)CC3)C2=O)c1,nt,nt,nt,34,-5,18,nt,-2,3.2,nt
CC(C)(C)C1CCC(=NNC(=O)c2ccco2)CC1 (stereo not drawn),17,16,3.9,17,-2,0,i,7,-1.1,0.4
O=C1CN(C(=O)c2ccccc2F)C(c2ccc(F)cc2)c2cc(F)ccc2N1 (stereo not drawn),-6,-14,-3.6,-1,-1,-4,i,11,-1.9,4.0
S=c1nc(-c2ccccc2)n(-c2ccccc2)[nH]1,4,6,1.4,?,1,-8,i,-5,-0.5,-4.5
COC(=O)c1ccc(C2NC(=O)NC(C)=C2C(=O)N(C)C)cc1 (stereo not drawn),nt,nt,nt,-6,1,8,nt,-3,-1.2,nt
